Cruzain inh noDet: qHTS Assay for Promiscuous and Specific Inhibitors of Cruzain (without detergent); Potency, µM, for inactives: max response, negative = inhibition, hits mostly inhibitors; 2.3% of 200,000 active; AID 1476, 2009; Cruzipain (Trypanosoma cruzi), P25779; purified cruzain, Z-FR-AMC fluorescence, no detergent;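 note: plate controls were enzyme without inhibitor for no effect and buffer without enzyme for full effect; nearly all actives have a fitted effect of over 40% in size; top concentration of the series not given in the record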
Target sequence (P25779 123-467 limits assumed): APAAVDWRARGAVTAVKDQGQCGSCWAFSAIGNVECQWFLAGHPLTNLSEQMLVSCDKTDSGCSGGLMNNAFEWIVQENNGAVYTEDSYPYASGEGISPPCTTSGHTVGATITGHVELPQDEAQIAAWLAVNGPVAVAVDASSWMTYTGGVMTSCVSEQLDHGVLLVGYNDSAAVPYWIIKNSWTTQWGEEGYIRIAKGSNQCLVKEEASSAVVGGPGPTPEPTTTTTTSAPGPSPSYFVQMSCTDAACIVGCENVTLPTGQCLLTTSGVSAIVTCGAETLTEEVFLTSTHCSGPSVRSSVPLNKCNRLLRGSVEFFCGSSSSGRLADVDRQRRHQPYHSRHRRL
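Detergent-free condition (0.00005% Triton X-100) in acetate buffer pH 5.5 with DTT. 1.5 nM enzyme and compound were pre-mixed 15 min, then 2 uM Z-FR-AMC substrate added; reaction progress from fluorescence change between first and third reads (60 s).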
SARS PLpro yeast: qHTS of Yeast-based Assay for SARS-CoV PLP; S. cerevisiae expressing SARS-CoV PLpro, growth rescue; control for the full effect not named in the record; Potency, µM (top dose mostly 32.9 µM), without a hit: top-dose activity, positive = growth rescue; 0.19% of 330,000 active; AID 485353, 2010; active means well fitted rising curve with a large enough effect; inconclusive means small, poorly fitted or top-dose-only effect; inactive means no such curve, though single readings can be large or run the other way; note: 0% is about no effect; nearly all actives have a fitted effect of over 55% in size; growth read by luminescence after 48 h
LASV entry inh: qHTS for Inhibitors of binding or entry into cells for Lassa Virus; Lassa virus pseudotype entry inhibition, cell reporter; control for the full effect not named in the record; Potency, µM (highest dose often 37.9 µM), without a hit: top-dose activity change, negative = inhibition, usual class: inhibitors; 1.2% of 300,000 active; active means well fitted inhibition curve with a large enough effect; inconclusive means small, poorly fitted or top-dose-only effect, or effect the other way; inactive means flat fitted curve, though single readings scatter; tested in HEK293 cells; note: % is set by controls: 0 for no effect and ±100 for the full control effect; nearly all actives have a fitted effect of over 50% in size; luciferase read-out
NS1 function inh: qHTS Assay for Inhibitors of Influenza NS1 Protein Function. S. cerevisiae slowed by influenza A NS1, growth recovery by OD600. Potency, µM (titrated, usually from 46.1 µM), for inactives: top-dose activity, positive = more growth. 0.4% of 270,000 active; active means well fitted rising curve with a large enough effect; inconclusive means small, poorly fitted or top-dose-only effect; inactive means no such curve, though single readings can be large or run the other way; note: nearly all actives have a fitted effect of over 50% in size
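A cell-based growth assay was used: compounds that relieve NS1-induced slow growth of budding yeast raise OD600. Assay medium was yeast nitrogen base with ammonium sulphate and -URA supplement, pH 6.0, with 2% galactose.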
MARV entry inh: qHTS for inhibitors of binding or entry into cells for Marburg Virus; Marburg virus pseudotyped entry inhibition, cell reporter; control for the full effect not named in the record; about a third of the inactives were read at about 46 µM; Potency, µM (highest dose often 37.8 µM), inactives show at the highest dose activity change, negative = inhibition, usual class: inhibitors; 1.8% of 300,000 active; AID 540276, 2011; active = well fitted inhibition curve with a large enough effect; inconclusive = small, poorly fitted or top-dose-only effect, or effect the other way; inactive = flat fitted curve, though single readings scatter; tested in HEK293 cells; about a fifth of its hits are not listed in these tables; note: % is set by controls: 0 for no effect and ±100 for the full control effect; luciferase read-out
RE007 growth inh: qHTS Assay for Inhibitors of the HIV-1 protein Vpr; S. pombe RE007 Vpr strain, BacTiter-Glo ATP luminescence, 24 h; control for the full effect not named in the record; Potency, µM (titrated, usually from 92.2 µM), without a hit: at the top dose activity change, negative = less growth; 0.21% of 360,000 active; active = well fitted falling curve with a large enough effect; inconclusive = small, poorly fitted or top-dose-only effect; inactive = no such curve, though single readings can be large or run the other way;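 note: % is set by controls: 0 for no effect and ±100 for the full control effect; nearly all actives have a fitted effect of over 50% in size; the assay follows cell death caused by Vpr and the record does not say whether a fall means rescue or toxicity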
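Fission yeast strain RE007, carrying one chromosomally integrated HIV-1 vpr copy, was seeded at OD 0.01 in PMG+AL medium with 23 nL pinned compound. After 24 h at 30 °C and 99% humidity, viability was read by BacTiter-Glo luminescence.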
Cruzain Triton: qHTS Assay for Promiscuous and Specific Inhibitors of Cruzain (with detergent); purified cruzain, Z-FR-AMC fluorescence, 0.01% Triton; Potency, µM, without a hit: max response, negative = inhibition, usual class: inhibitors; 0.43% of 200,000 active;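 note: plate controls were neutral wells for no effect and buffer without enzyme for full effect; nearly all actives have a fitted effect of over 40% in size; top concentration of the series not given in the record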
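Detergent-containing arm of a paired screen for aggregation-based inhibition: 0.01% Triton X-100 present. Cruzain at 1.5 nM cleaved 2 uM Z-FR-AMC at pH 5.5 with 5 mM DTT; AMC fluorescence gain over 60 s measured activity.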
2A StopGo: High Throughput Screening for Foot and Mouth Disease Virus Antivirals; Potency, µM (series often up to 57.9 µM), for the others: at the highest dose signal change, negative = less light; 1.2% of 410,000 active; human cells with a luciferase reporter of 2A StopGo recoding; control for the full effect not named in the record; active = well fitted falling curve with a large enough effect; inconclusive = small, poorly fitted or top-dose-only effect; inactive = no such curve, though single readings can be large or run the other way; tested in HEK293T cells; note: % is set by controls: 0 for no effect and ±100 for the full control effect; nearly all actives have a fitted effect of over 45% in size; luciferase light after 4 h
Active calls of the source: *; ? = inconclusive; . = no result given; & = joins results of further samples; [ ] = another dose, or the depositor's remark. Unless noted, calls come from the whole dose curve; as a rule, active = well fitted curve in the direction sought with a large enough effect; inconclusive = small, poorly fitted or top-dose-only effect, or another doubt; inactive = no such curve, though single readings can be large; an effect the other way counts as inactive or inconclusive. Potency is the fitted concentration of half-maximal effect. No enrichment for hits. About 4.7% of those tested had a hit in this group.

SMILES	Cruzain inh noDet	SARS PLpro yeast	LASV entry inh	NS1 function inh	MARV entry inh	RE007 growth inh	Cruzain Triton	2A StopGo
Cc1ccc(S(=O)(=O)N2CCC[C@H]2C(=O)OCc2nc3ccccc3s2)cc1	.	.	-11%[46.1 µM]	.	-1%[46.1 µM]	10%	.	-2%
CCO/C=C1/C(=O)N(CC)c2ccccc21	3%	-1%	?	-63%	-24%	-24%	-1.7%	3%
CN(C)S(=O)(=O)c1ccc(Cl)c(NC(=O)COC(=O)/C=C/c2cnc3ccccc3n2)c1	.	1%	.	-1%	.	5%	.	17%
CC(=O)NCC(=O)OCC(=O)c1ccc(C)c(C)c1	9%	1%	11%	1%	-3%	-8%	5.3%	.
Oc1ccc(/C=N/N2CCCCC2)c(O)c1	.	-1%	19%	1%	26%	-2%	.	29%
O=C(Nc1ccccn1)c1ccc(Cl)c(S(=O)(=O)N2CCOCC2)c1	.	1%	12%	-5%	13%	-2%	.	0%
CCCC(=O)Nc1cccc(-c2nc3cc(C)c(C)cc3o2)c1C	0%	.	?	.	.	.	0.2%	19%
CC(=O)c1ccc(NC(=O)CSc2ccc(-c3ccc(-n4cccn4)cc3)nn2)cc1	.	2%	19%	.	-1%[46.1 µM]	1%	.	15%
O=C(NCC1CCCO1)C1CCC(=O)N1Cc1ccccc1Cl (stereo not given)	-5%	-3%	-3%	-3%	13%	1%	4.4%	11%
Cc1ccccc1CN1C(=O)c2ccccc2S(=O)c2ccc(C(=O)NCc3ccc4c(c3)OCO4)cc21 (stereo not given)	-16%	.	-12%[46.1 µM]	.	2%[46.1 µM]	.	1.6%	0%
Cn1cnnc1SCC(=O)Nc1ccc2ccccc2c1	.	2%	0%	.	-3%	-2%	.	24%
C=CCn1c(O)c(/C(C)=N/NC(=S)Nc2ccccc2)c(=O)[nH]c1=O	.	0%	-7%	-1%	10%[46.1 µM]	-5%	.	-12%
CCOC(=O)c1c(NC(=O)C2=C(C)NC(=S)NC2c2ccc(C)cc2)sc(C)c1C (stereo not given)	20µM*	11%	?	0%	?	6%	-8.2%	-22%
CCc1ccc2c(CN(C)Cc3ccccc3OC)cc(=O)oc2c1	.	-1%	?	-8%	?	13%	.	10%
Cc1cccc(CNc2ncnc3[nH]ncc23)c1	-2%	.	1%	-8%	0%	15%	5.3%	?

Rewritten in CSV form: 2 of the compounds above
molecule,Cruzain inh noDet,SARS PLpro yeast,LASV entry inh,NS1 function inh,MARV entry inh,RE007 growth inh,Cruzain Triton,2A StopGo
Oc1ccc(/C=N/N2CCCCC2)c(O)c1,.,-1%,19%,1%,26%,-2%,.,29%
O=C(Nc1ccccn1)c1ccc(Cl)c(S(=O)(=O)N2CCOCC2)c1,.,1%,12%,-5%,13%,-2%,.,0%

The list goes on.
SMILES	Cruzain inh noDet	SARS PLpro yeast	LASV entry inh	NS1 function inh	MARV entry inh	RE007 growth inh	Cruzain Triton	2A StopGo
COc1ccc(C(=O)c2ccc(OC)c(OC)c2)cc1OC	3%	-6%	4%	-15%	2%	10%	-0.2%	-6%
COc1cc(/C=C2\SC(=S)N(N3CCOCC3)C2=O)cc(OC)c1OC	?	26%	-9%	8%	-3%	.	-3.5%	0%
CCC12CN3CC(CC)(CN(C1)C31C(=O)N(C)c3ccc(C)cc31)C2=O (stereo not given)	1%	-4%	-5%	-2%	5%	-13%	5.7%	-14%
CC(=O)N1CCN(CC(=O)Nc2sccc2C#N)CC1	.	1%	2%	.	?	52%	.	4%
CC1CN(C(=O)C2CCCC2)C(C)CN1C(=O)C1CCCC1 (stereo not given)	-13%	-11%	0%	3%	2%	.	-1.8%	-8%
CCOc1ccc(NC(=O)CSc2nc3[nH]ncc3c(=O)n2-c2ccccc2OC)cc1	15%	-34%	?	-3%	13%	-13%	-3.7%	-13%
COC(=O)c1ccc(Sc2ccc(Cl)cc2)c(N)c1	-7%	-11%	26%	-81%	?	-26%	-6.1%	-4%
O=C(COC(=O)/C=C/c1ccccc1)Nc1ccccc1Br	-3%	-13%	?	2%	0%	-1%	-7.6%	13%
CCn1c(C(=O)N2CCC(C(=O)N3CCN(c4ccc(OC)cc4)CC3)CC2)cc2sccc21	?	.	.	.	5%[46.1 µM]	.	-6.2%	?
Cc1ccc(NC(=O)c2nc[nH]c2C(=O)N2CCC(C)CC2)cc1	.	1%	.	-8%	.	-13%	.	0%
CCOc1c(OC)cc(C2C(C#N)=C(N)Oc3n[nH]c(-c4ccncc4)c32)cc1OC (stereo not given)	-3%	3%	-2%	2%	3%	10%	0.4%	-10%
CCc1ccc(NC(=O)C2CCN(S(=O)(=O)c3c(C)noc3/C=C/N(C)C)CC2)cc1	.	-1%	.	18%	.	2%	.	-23%
COc1ccc(C=NCC2COc3ccccc3O2)cc1OC (stereo not given)	12%	0%	17%	15%	-12%	-3%	-2.1%	10%
COc1ccc(S(=O)(=O)N2CCC(C(=O)N3CCCCC3)CC2)cc1	.	4%	-25%	3%	-13%[46.1 µM]	17%	.	-18%
COc1ccc(Cl)cc1S(=O)(=O)N1CCCC(C(=O)NCCc2ccccc2)C1 (stereo not given)	.	-2%	?	-23%	12%	-15%	.	-7%
CCOC(=O)C1=NN(c2ccc(F)cc2)C2=NC(C)=C(C(=O)OC)C(c3cccs3)N12 (stereo not given)	.	.	6%	.	7%	2%	.	16%
COc1ccc(CCNC(=O)C2CCCN(S(C)(=O)=O)C2)cc1OC (stereo not given)	1%	4%	0%	1%	-3%	-15%	3.0%	.
COc1ccc(C(CC(=O)NCc2ccccc2)Sc2n[nH]c(-c3ccccc3)n2)cc1 (stereo not given)	-8%	1%	-7%	-3%	-21%	-7%	-4.4%	18%
O=C(NCc1ccccc1)Nc1cccn(Cc2ccc(F)cc2)c1=O	-7%	-1%	?	2%	?	-17%	-6.6%	0%
CNC(=O)C1C2C=CC3(O2)C1C(=O)N(C1CC1)C3C(=O)NCc1ccc(OC)cc1 (stereo not given)	-8%	4%	5%	1%	5%	7%	6.9%	12%
Cc1c(C(=O)N2CCCCC2)sc(NC(=O)C(C)C)c1C#N	-2%	-3%	13%	0%	-6%	-5%	2.2%	.
COC(=O)CSC1=C(C#N)C(c2ccccc2OC)C(C(=O)OC)C(=O)N1 (stereo not given)	2%	-5%	-11%	4%	?	0%	1.1%	30%
Cn1c(SCC(=O)c2ccccc2)nnc1-c1ccccn1	.	-1%	?	0%	?	-6%	.	0%
CC(C)(C)NC(=O)CSc1nc(-c2ccccc2)c(-c2ccccc2)[nH]1	0%	-5%	-25%	-18%	?	2%	-6.8%	?
CCc1c(C)nc2ncnn2c1N1CCC(C(=O)NCc2cccs2)CC1	.	-1%	-21%[46.1 µM]	1%	-9%[46.1 µM]	6%	.	-17%
COc1cccc(OCc2nnc(SCC(=O)NCc3ccco3)n2CCc2ccccc2)c1	?	1%	2%	-10%	?	-7%	-11%	4%
Cc1ccc(C(=O)CSc2nnc(C)s2)cc1	1%	-31%	15%	18%	?	-8%	-2.9%	38%[activator]
COc1ccc(/C=N/n2cnn(Cc3ccccc3Cl)c2=S)cc1	.	2%	?	.	?	33%	.	9%
COc1ccccc1CNC(=O)c1c2c(nc3ccccc13)C(=O)N(C1CCCCC1)C2	-10%	.	11%[46.1 µM]	.	.	.	0.1%	-20%
O=C(O)c1ccc(F)c(S(=O)(=O)Nc2ccccc2)c1	-1%	1%	12%	1%	-4%	11%	-0.3%	17%
COc1cccc(/C=N/n2nnnc2N)c1	.	0%	.	1%	.	-17%	.	10%
CCNC(=S)N1CCC(C(=O)c2ccc3c(c2)OCCO3)CC1	.	0%	.	9%	.	-5%	.	7%
Cc1cc(C)c(S(=O)(=O)N2CCC(C(=O)NCc3ccco3)CC2)c(C)c1	-4%	.	13%	-16%	9%	-4%[3.69 µM]	7.7%	-19%
CCOc1ccc(N2CC(C(=O)Nc3cccc(C)c3C)CC2=O)cc1 (stereo not given)	0%	9%	24%	-2%	19%	3%	0.2%	11%
CC(C)=CC(=O)N1CCCC(N2CCN(c3ccccc3C)CC2)C1 (stereo not given)	.	-1%	-3%[46.1 µM]	6%	?	5%	.	-2%
Cc1cc(OC(=O)c2cccc(Cl)c2)c([N+](=O)[O-])c(=O)[nH]1	.	-1%	.	-18%	.	0%	.	-8%
Cn1c(=O)c(C(=O)NNC(=O)c2cccc(Cl)c2)c(O)c2ccccc21	.	-2%	?	-29%	?	13µM*	.	-26%
CC12CCC(=O)C=C1CCC1C2C(O)CC2(C)C1CCC21OCC1=O (stereo not given)	.	.	10%[46.1 µM]	.	?	-5%	.	-5%
O=C(CN1CCSc2ccccc21)N1CCN(c2ccccc2)CC1	-5%	.	7%[46.1 µM]	.	.	.	3.5%	-17%
Cc1ccc(/C=N/n2cnc3sc(C)c(C)c3c2=O)o1	.	-7%	-1%	-2%	?	-5%	.	37%[activator]
CC(=O)/C(=N/Nc1ccccc1[N+](=O)[O-])N1CCCc2ccccc21	.	-2%	?	1%	-18%[46.1 µM]	-19%	.	?
CC(C)=NN1C(c2nonc2N)=NOC1(C)C	.	1%	14%	7%	5%	2%	.	-10%
O=C(Nc1ccc(C(F)(F)F)cc1)C1CCN(c2cnccn2)CC1	-8%	-20%	-20%&15%[46.1 µM]	-14%	13%&-4%[46.1 µM]	0%	-8.4%	-30%&-19%
CC(=O)N1c2ccc(S(=O)(=O)CCC(=O)O)cc2CC1C (stereo not given)	-5%	3%	0%	18%	?	29%	2.0%	-18%
CC12CC(=O)C3C(CCC4CC(=O)C=CC43C)C1CCC2=O (stereo not given)	.	.	-8%[46.1 µM]	.	?	10%	.	3%
O=C(CC(=O)c1ccccc1O)c1ccc(F)cc1	-4%	-31%	?	-244%	?	?	-3.8%	28%
COc1ccc(S(=O)(=O)N(C)c2ccc(C(=O)Nc3cccnc3)cc2)cc1OC	.	-4%	20%	-6%	2%	-7%	.	-20%
